Source: PubChem
MT1-MMP act inh – MT1-MMP (human) activation inhibition; P50281; HT1080 RFP-PRO-GFP cells, GFP/RFP ratio fluorescence, overnight; percent of plate control window, DMSO zero; GFP/RFP ratio change, % at 20 µM; actives 0.061% (n = 360,000); AID 651647;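 active = GFP/RFP ratio change of at least 30% with cell ATP level not reduced by more than half and red fluorescence within 50% of control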; note: strong numbers were not always called active
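Test system: HT1080 RFP-PRO-GFP cells; Benchmarks: DMSO and RFP-L50D-GFP cell wells; Timing: cells overnight before dosing, compound overnight, 37 °C, 5% CO2; Compound: one 20 µM compound dose with 1% DMSO; Read-out: GFP/RFP fluorescence ratio.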
UUG fidelity – alters start codon recognition fidelity in yeast; S. cerevisiae UUG-firefly luciferase reporter, luminescence/redox ratio; activity score, % at 18.7 µM; actives 0.13% (n = 350,000);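 active = replicate mean at a twofold rise or more, about +100% in these data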;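 note: firefly luciferase made from a UUG start codon reports start codon fidelity; reporter light over untreated wells divided by growth signal over untreated wells; some hits fall short of that in this replicate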
MT1-MMP act inh RFP – also measured in MT1-MMP act inh; calls as there; RFP signal change, %; measured here: RFP expression control read;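 0 = vehicle wells; hits needed this value within 50% of zero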
Starred values were filed as active, the others as inactive.

UUG fidelity	compound	MT1-MMP act inh RFP	MT1-MMP act inh
-20	C=C(C)c1cc2c(ccc3ccc(=O)oc32)o1	-1	-1
11	COc1cc(CCC(=O)Nc2ccc(C)c(S(=O)(=O)N3CCCCCC3)c2)cc(OC)c1OC	-32	2
-23	CC(C)C1C(=O)N(Cc2cn(Cc3ccco3)nn2)CCS(=O)(=O)N1Cc1ccc(-c2ccccc2)cc1 (stereo unspecified)	-5	-2
-8	CCCCCC(=O)N1C[C@@H](O)[C@H](n2cc(COC(=O)c3ccccc3)nn2)C[C@@H]1c1ccc(Cl)cc1	-1	0
-19	COC(=O)C1CCN(C(=O)c2cc(S(=O)(=O)N3CCCCC3)ccc2Cl)CC1	4	3
27	O=C(NCc1ccc(Cl)cc1)N1CCN(C(=O)c2ccccc2)CC1	0	-1
-17	O=C(COc1ccccc1O)NC1CCCC1	1	2
1	COc1ccc(CCNC(=O)c2c(O)c3c([nH]c2=O)CCCC3)cc1OC	-8	-4
-33	CCN(CC)C(=O)[C@H]1CC(CC(=O)NCCCn2ccnc2)C(=O)N2CCc3c([nH]c4ccc(OC)cc34)[C@]12C (stereo partly specified)	4	0
-9	COc1ccc(-c2csc(C(C#N)=C(O)CSc3nccn3C)n2)cc1OC	14	1
-17	O=S(=O)(NC1CC1)c1ccc(Br)cc1N1CCC[C@H]1CO	1	7
-3	O=C(CN1C(=O)c2ccccc2C1=O)NC(Cc1ccccc1)C(=O)O (stereo unspecified)	-2	7
-12	CC(=O)C1(O)C(C)CC2C3CC(F)C4(O)CC(O)CCC4(C)C3CCC21C (stereo unspecified)	2	-3
3	COc1cccc(CC(=O)OCC(=O)NCCc2ccc(F)cc2)c1	5	1
12	CC(C)(C)OC(=O)NCCCCCNC(=O)c1[nH]cnc1C(=O)N[C@@H](Cc1ccccc1)C(=O)OC(C)(C)C	0	0
-8	COc1ccc(C(CNC(=O)c2oc3ccccc3c2C)N2CCCC2)cc1 (stereo unspecified)	-1	0
-14	C[C@@H]1CN([C@H](C)CO)C(=O)c2c(c3ccccc3n2C)-c2ccccc2CO[C@H]1CN(C)Cc1ccc2c(c1)OCCN2C	3	2
-6	CCN(CC(=O)Nc1ccc(OC)cc1)C(=O)CSCc1c(C)noc1C	1	-3
-12	COC(=O)c1ccc(C)cc1	2	-1
-8	CN(CC(=O)Nc1cccc(F)c1)C(=O)c1cccc2ccccc12	-4	-2
-8	CCc1nc2ccccc2c(C(=O)OCC(=O)N(CCOC)c2c(N)n(Cc3ccccc3)c(=O)[nH]c2=O)c1C	-9	-18
-33	COC(=O)[C@]1(Cc2ccccc2)N[C@H](CN(C)C(=O)c2ccccc2)[C@@H]2C(=O)N(C)C(=O)[C@@H]21	4	-2
0	Cc1ccc([C@H]2C[C@@H](O)[C@H](n3cc(COC(=O)c4ccccc4)nn3)CN2CC2CCCCC2)cc1	-9	-6
-15	CCN(CC)C(=O)c1cccc(-c2csc(C(O)c3ccccc3)n2)c1 (stereo unspecified)	-23	0
-25	Cn1cccc1C(=O)NNC(=O)COc1ccccc1Cl	2	-1
-10	O=C(CN1C(=O)NC2(CCc3ccccc32)C1=O)Nc1ccccc1C(F)(F)F (stereo unspecified)	2	1
-20	CCCS(=O)(=O)NC(=O)C1(C)CCCN(C(=O)c2ccccc2OC)C1 (stereo unspecified)	5	5
-11	CC(OC(=O)Cc1c[nH]c2ccccc12)C(=O)c1ccccc1 (stereo unspecified)	2	5
-2	COc1ccccc1CCC(=O)Nc1ccc(OC)c(S(=O)(=O)N2CCOCC2)c1	-1	0
-12	CCCCOc1ccc(C(=O)NCC(=O)NCCOc2ccc(C)cc2)cc1	1	-2
-14	COc1cc(CNC(=O)c2cc(-c3ccc(F)cc3OC)n[nH]2)cc(OC)c1	-1	2
-25	Cc1ccc(S(=O)(=O)N2CCOCC2)cc1C(=O)NCc1ccccn1	2	2
-18	CCNC(=O)C1(C)CCN1CCS(=O)(=O)c1ccc(C)cc1 (stereo unspecified)	-1	-2
7	N#Cc1ccccc1S(=O)(=O)N1CCC(C(=O)NCc2ccccc2CN2CCCC2)CC1	3	3
-11	Cc1ccc(NC(=O)c2ccc(=O)[nH]c2)cc1S(=O)(=O)N1CCCCCC1	-5	8
-12	CC(C)Oc1ccc(C(=O)OCC(=O)NC(=O)NC2CCCC2)cc1	3	0
7	Cc1ccc(C(=O)OC(C)C(=O)N(C)C2CCCCC2)cc1S(=O)(=O)N1CCCCC1 (stereo unspecified)	-11	1
-21	O=C(CSc1ccccc1C(=O)O)Nc1ccc2c(c1)OCO2	5	2
-17	CC(=O)N1CCN(C(=O)CCNS(=O)(=O)c2ccccc2)CC1	5	-1
-40	COC(=O)c1ccc(NC(=O)CNC(=O)c2sc3ccccc3c2Cl)cc1	-1	-2
-40	CCN(C(=O)CN1C(=O)NC(CCSC)C1=O)C1CCS(=O)(=O)C1 (stereo unspecified)	2	-4
13	Cc1ccc(C(C)NC(=O)CSc2ccc(S(=O)(=O)N3CCOCC3)cn2)cc1C (stereo unspecified)	-3	5
-15	CC1(C(=O)NS(=O)(=O)c2cccc(Cl)c2)CCN1C(=O)c1cccc(F)c1 (stereo unspecified)	4	-7
-8	c1ccc(CSc2ncnc3c2oc2ccccc23)cc1	-4	1
-30	Cc1nnc(NC(=O)C2CCN(S(=O)(=O)c3cc([N+](=O)[O-])ccc3Cl)CC2)o1	2	2
-10	COc1cc(/C=C/CNC[C@H]2O[C@@H](n3cnc4c(N)ncnc43)[C@H](O)[C@@H]2O)ccc1O	4	-2
-11	COc1ccc(NC(=O)CN(C)CC(=O)N(C)C2(C#N)CCC(C)CC2)cc1 (stereo unspecified)	-2	-2
-13	O=[N+]([O-])c1cccc(Oc2ncccc2[N+](=O)[O-])c1	2	-2
-25	O=C(Nc1ccccc1)OCCc1ccccn1	-1	1
-7	CC(=O)N1CCN(c2cc(-c3ccccc3)nc3cc(-c4cccc(Cl)c4)nn23)CC1	-15	-3
-17	COc1ccc(N2CCN(C(=O)COC(=O)COc3cccc(C(F)(F)F)c3)CC2)cc1	2	-2
-6	COc1ccc(C(=O)NC(=O)COC(=O)c2ccc(C)o2)cc1	5	2
-3	CN(C)C(CNC(=O)c1cccc(S(=O)(=O)N2CCN(c3ccccc3)CC2)c1)c1ccccc1 (stereo unspecified)	-7	-3
-6	CC[C@H](C)[C@@H](CO)NC(=O)[C@H]1O[C@@H](n2ccc(=O)[nH]c2=O)[C@H](O)[C@@H]1O	2	2
-12	O=C(COC(=O)Cc1ccsc1)Nc1cccc(F)c1	1	-2
-3	CCCN(C(=O)CSc1nc(C2CC2)n(-c2ccccc2)n1)C1CCS(=O)(=O)C1 (stereo unspecified)	-1	5
2	O=C(Nc1ccccc1Cl)c1cc(C2CCCCN2S(=O)(=O)c2ccccc2)on1 (stereo unspecified)	2	3
-9	CC(C)N(C(=O)CSc1ccc(S(=O)(=O)N2CCCCC2)cn1)C(C)C	-1	1
7	CCCCCCN1C[C@H](O)[C@@H](n2cc(COC(=O)c3ccccc3)nn2)C[C@@H]1c1ccccc1	0	-1
43	COc1cc(C=C2CN(C)C(=O)C2=O)ccc1O	3	1

Other compounds follow:
UUG fidelity	compound	MT1-MMP act inh RFP	MT1-MMP act inh
-7	CN1C(=O)[C@H]2[C@@H](c3ccc(C(F)(F)F)cc3)N[C@]3(CCCN(Cc4ccc(F)cc4)C3=O)[C@H]2C1=O	-1	4
-23	Cc1ccc(NC(=O)Cc2nc(COC(=O)C(C)NS(=O)(=O)c3ccc(C)cc3)cs2)cc1 (stereo unspecified)	6	0
-8	CCCCC1(CC(=O)OCC)SCCN1C(N)=O (stereo unspecified)	-1	-3
4	O=C(CCOc1ccccc1)N1CCN(S(=O)(=O)c2ccccc2F)CC1	1	4
-2	COc1ccc(NS(=O)(=O)c2cccc(C(=O)NCC(c3ccc(OC)cc3)N3CCCCC3)c2)cc1 (stereo unspecified)	3	6
-6	Cc1ccc(S(=O)(=O)NC(=O)C2(C)CCN2C(=O)CCc2ccc(Cl)cc2Cl)nc1 (stereo unspecified)	5	3
1	COc1cccc(-c2nn(-c3ccc(C)cc3)cc2C(=O)N2CCN(C3CCS(=O)(=O)C3)CC2)c1 (stereo unspecified)	-1	2
-15	CC(=O)NCc1ccc(C(=O)COC(=O)COc2ccccc2)s1	7	10
-5	N#Cc1ccc(CN2CCN(C(=O)c3cccc(S(=O)(=O)N4CCCCCC4)c3)CC2)cc1	-22	-7
38	CC(=O)Nc1ccc(NC(=O)C(C)OC(=O)C2CCCCC2)cc1 (stereo unspecified)	7	0
4	CC(=O)c1c(C)[nH]c(C(=O)OC(C)C(=O)Nc2ccc(C)c(S(=O)(=O)N3CCOCC3)c2)c1C (stereo unspecified)	-4	4
-16	CC(=NNC(=O)c1ccncc1)c1cccc(Cl)c1	2	-2
4	O=C(c1ccco1)N1CCN(C2CN(Cc3cn(Cc4ccccc4C(F)(F)F)nn3)S(=O)(=O)C2)CC1 (stereo unspecified)	2	1
-25	COC(=O)Cc1csc(NC(=O)c2ccc3ncsc3c2)n1	-4	-8
-7	Cc1ccc2nc3n(c(=O)c2c1)-c1cc2ccccc2cc1C(=O)NC3Cc1ccc(O)cc1 (stereo unspecified)	-18	-16
-15	N#CCCN(C(=O)COC(=O)c1cc2ccccc2oc1=O)c1ccccc1	1	3
-14	Cc1cccnc1C(NC(=O)C1CCN(Cc2ccc(Oc3ccccc3)cc2)CC1)c1ccccc1 (stereo unspecified)	-3	0
-27	CN(c1ccccc1)S(=O)(=O)c1cccc(NC(=O)c2ccc(=O)[nH]c2)c1	-12	5
-8	CCCS(=O)(=O)NC(=O)C1(C)CCCN(C(=O)c2ccc3c(c2)OCO3)C1 (stereo unspecified)	4	1
-8	O=C(NCC1CCCCC1)c1ccc(Cl)c(S(=O)(=O)N2CCOCC2)c1	-2	1
-26	O=C(CN1C(=O)c2ccccc2C1=O)NCC(=O)Nc1ccccc1	7	5
-13	Cc1cn([C@H]2C[C@H](O)[C@@H](CCC(=O)NCCc3cccs3)O2)c(=O)[nH]c1=O	5	1
-13	CCN(CC)C(=O)C1=C(C)N(CCCN2CCCC2=O)C(=O)C(CC(=O)NC2CCCCC2)C1 (stereo unspecified)	-6	-1
-13	Cc1ccc([C@H]2N[C@]3(CCCN(Cc4ccc(Cl)cc4)C3=O)[C@H]3C(=O)N(C)C(=O)[C@@H]23)cc1	2	-4
-9	CCN(CC)S(=O)(=O)c1ccc(NC(=O)CCN2C(=O)C3CC=CCC3C2=O)cc1 (stereo unspecified)	2	0
-7	COCc1c(C(=O)N2CCN(c3ncccn3)CC2)oc2ccccc12	4	1
-12	CN1CCN(C2CN(Cc3ccc([N+](=O)[O-])cc3)S(=O)(=O)C2)CC1 (stereo unspecified)	3	3
-19	CN(CCOc1ccc(Cl)cc1)C(=O)c1cccc(S(=O)(=O)N2CCN(c3ccccc3)CC2)c1	-32	12
-16	O=S(=O)(c1ccc2c(c1)CCN2)N1CCOCC1	1	-1

Not all compounds are listed. The share of hits here may be higher or lower than overall.
